PINK1 modulator – A Quantitative High throughput Screen to Identify Chemical Modulators of PINK1 Expression. PINK1 immunofluorescence, high-content cytometry, 24 h. Potency, µM (series often up to 76.6 µM), for the others: at the highest dose activation (PINK1 increase), usual class: activators. 410,000 tested, 0.2% active. AID 624263, 2012; active = well fitted activation curve with a large enough effect; inconclusive = small, poorly fitted or top-dose-only effect; inactive = flat fitted curve, though single readings scatter; cell line not stated here;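 further: potency means the concentration at half of the fitted maximal effect; % of control where 0% means no effect; nearly all actives have a fitted effect of over 65% in size; a mitochondrial uncoupler was the plate control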
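Measures PINK1 amount and localization on or inside mitochondria by immunofluorescence. Stable cells get compounds at 5 concentrations for 24 hours before fixation and staining; CCCP controls included.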
gsp antag – qHTS for Antagonists of gsp, the Etiologic Mutation Responsible for Fibrous Dysplasia/McCune-Albright Syndrome: qHTS. gsp-mutant cells, cAMP HTRF, 30 min; control for the full effect not named in the record. Potency, µM (highest dose often 76.9 µM), without a hit: top-dose activity change, negative = inhibition, most hits filed as inhibitors. 340,000 tested, 0.4% active. AID 624288, 2012; active = falling curve of any shape with a large fitted effect; inconclusive = falling curve, mostly with a smaller effect; inactive = flat or rising curve; cell line not stated here;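 further: intracellular cAMP measured with PDE inhibitor Ro 20-1724 present during compound exposure; potency means the concentration at half of the fitted maximal effect; on the % scale 0 is the no-effect control and ±100 the full control effect; nearly all actives have a fitted effect of over 65% in size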
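G418-selected cells were plated in DMEM/10% FBS for 16-24 h at 37C, then treated with compounds plus the PDE inhibitor […] (300 uM solution added) for 30 min at 37C. Intracellular cAMP was measured by HTRF after 30 min lysis at room temperature.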
Menin MLL FP FL – qHTS Assay for Inhibitors Targeting the Menin-MLL Interaction in MLL Related Leukemias: Competition With Fluorescein Labeled MLL-derived Peptide; 290,000 tested, under 10 active; Fluorescence polarization, fluorescein-MLL peptide displacement from menin; FP activity change, % at 61.4 µM; inconclusive = falling polarisation curve, or a change in total fluorescence; inactive = total fluorescence flat and polarisation flat or rising; no compound was filed as active; the % refers to the polarisation; negative = inhibition;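 further: % of control where 0% means no effect; inhibitors lower the polarisation; unlabelled MLL peptide was the positive control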
ClpP mod – qHTS Assay for Activators of ClpP; ATP-dependent Clp protease proteolytic subunit (Bacillus subtilis (strain 168)), P80244; purified B. subtilis ClpP, FRET peptide cleavage, 20 min; Potency, µM (titrated, usually from 57.5 µM), inactives show at the highest dose activity change, negative = active; AID 651965, 2013; 340,000 tested, 1.9% active; active = well fitted falling curve with a large enough effect; inconclusive = small, poorly fitted or top-dose-only effect; inactive = no such curve, though single readings can be large or run the other way; further: potency means the concentration at half of the fitted maximal effect; the source files actives as falling curves though it sought activators and does not explain the sign; nearly all actives have a fitted effect of over 65% in size; many hits overshoot -100%
Target sequence (P80244 whole entry, looked up): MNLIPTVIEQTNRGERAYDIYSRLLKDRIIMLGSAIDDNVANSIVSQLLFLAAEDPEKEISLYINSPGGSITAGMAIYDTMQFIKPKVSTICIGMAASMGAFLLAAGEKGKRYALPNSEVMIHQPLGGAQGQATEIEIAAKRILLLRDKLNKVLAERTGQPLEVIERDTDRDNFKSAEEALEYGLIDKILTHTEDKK
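FRET quenching reversal measured ClpP activation: 10 microg/mL B. subtilis ClpP at pH 8 with the FRET-FV decapeptide, read at 430 nm after 320 nm excitation. The 20-min minus 0-min signal was scaled between DMSO/no-enzyme wells and ADEP (5.8 microM final).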
D2 ag – Beta-Arrestin HTS for Positive Allosteric Modulators of the Human D2 Dopamine Receptor: Agonists. activation, % (no concentration beside the values). D(2) dopamine receptor (Homo sapiens), P14416. AID 624465, 2012. 360,000 tested, 0.084% active. DiscoveRx PathHunter D2 beta-arrestin, luminescence, 90 min; 100% = 57 uM dopamine signal; in the data active = activation above about 40%; inconclusive = about 15% to 40%; inactive = below about 15%; further: compound concentration not given in the record; the text of the record calls up to 30% inactive
Target sequence (P14416 whole entry, looked up): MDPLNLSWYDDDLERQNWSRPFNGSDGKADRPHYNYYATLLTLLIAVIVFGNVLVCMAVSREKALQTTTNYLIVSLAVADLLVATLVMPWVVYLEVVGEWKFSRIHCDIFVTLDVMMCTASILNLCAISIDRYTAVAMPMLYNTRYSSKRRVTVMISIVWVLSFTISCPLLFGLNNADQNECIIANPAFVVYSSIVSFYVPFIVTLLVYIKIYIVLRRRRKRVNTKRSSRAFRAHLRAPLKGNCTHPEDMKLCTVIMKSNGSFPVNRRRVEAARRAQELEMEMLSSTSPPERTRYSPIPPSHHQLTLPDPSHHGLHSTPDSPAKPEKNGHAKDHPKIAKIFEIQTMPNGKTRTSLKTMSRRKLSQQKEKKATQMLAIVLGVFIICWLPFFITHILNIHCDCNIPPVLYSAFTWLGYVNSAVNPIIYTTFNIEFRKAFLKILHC
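Agonist mode: compounds alone added to overnight-plated D2 PathHunter cells for 90 min at 37 C, with 57 uM final dopamine (EC100) defining full response. Beta-arrestin recruitment detected by chemiluminescent reagent, read after 1 h at ambient temperature.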
Sfp PPTase inh – qHTS Assay for Inhibitors of Bacillus subtilis Sfp phosphopantetheinyl transferase (PPTase); 4'-phosphopantetheinyl transferase ffp (Bacillus subtilis), Q9F4F7; Biochemical Sfp PPTase activity, qHTS; Potency, µM, for inactives: max response, negative = inhibition, hits mostly inhibitors; 310,000 tested, 3.5% active; AID 1490, 2009; active means well fitted inhibition curve with a large enough effect; inconclusive means small, poorly fitted or top-dose-only effect, or another doubt; inactive means no such curve, though single readings can be large or run the other way;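 further: the enzyme is Sfp with the accession as filed and its product quenches rhodamine fluorescence; potency means the concentration at half of the fitted maximal effect; 0% = enzyme reaction without inhibitor and -100% = no enzyme wells; top concentration of the series not given in the record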
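After 15 min at room temperature with compound, 15 nM Sfp received 5 uM rhodamine-CoA plus 12.5 uM BHQ-2-ybbR (50 mM Hepes pH 7.6, 10 mM MgCl2). Rate came from the fluorescence difference over 30 min, ex 525/em 598 nm.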
gsp ag – qHTS for Agonist of gsp, the Etiologic Mutation Responsible for Fibrous Dysplasia/McCune-Albright Syndrome: qHTS; gsp mutant cells, cAMP HTRF, 30 min; control for the full effect not named in the record; Potency, µM (doses to about 76.9 µM), for inactives: at the top dose activation (cAMP increase), most hits filed as activators; 340,000 tested, 0.13% active; AID 624287, 2012; active = well fitted activation curve with a large enough effect; inconclusive = small, poorly fitted or top-dose-only effect, or another doubt; inactive = no such curve, though single readings can be large or run the other way; cell line not stated here;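 further: phosphodiesterase inhibitor Ro 20-1724 added with compounds to block cAMP breakdown; potency means the concentration at half of the fitted maximal effect; nearly all actives have a fitted effect of over 60% in size; about a fifth of the inactives were tested at one dose only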
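Cells in DMEM/10% FBS with G418 were pretreated with compounds in DMSO plus […] (300 uM stock) for 30 min at 37C. cAMP was measured by HTRF (cAMP-d2 plus anti-cAMP antibody-K) after 30 min at room temperature.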
* marks the source's active call; other numbers are inactive results; u = inconclusive; x = no result given; & = joins results of further samples; [ ] = remark or other dose.

Sequence of screens – Menin MLL FP FL	ClpP mod	gsp antag	Sfp PPTase inh	gsp ag	D2 ag	PINK1 modulator
1) CCOC(=O)[C@H]1[C@H]2COc3ccc(Br)cc3[C@@H]2N2C(=O)CN(Cc3ccc(C)cc3)C(=O)[C@@]12C
    x	-3.7%	-18%	x	-18%	-10	0.3%
2) CCOc1ccc(CCNC(=O)C2CCN(c3nn4c(=O)cc(C)nc4s3)CC2)cc1OCC
    4.0	u	-4%	7%	-4%	-3.5	4.8%
3) CC12CCC(C(=O)O)(C/C1=N\O)C2(C)C (stereo not drawn)
    0.0&5.5	-0.1%&0.6%	4%&9%	15%&8%	10%&2%	1.0&4.0	5.2%[38.3 µM]
4) CC1Oc2ccccc2N(CC(=O)NCCCN2CCOCC2)C1=O (stereo not drawn)
    x	x	6%	13%	-42%[inhibitor]	-4.0	-0.5%
5) CC(C)OP(=O)(c1ccc(N(C)C)cc1)C(O)c1ccncc1 (stereo not drawn)
    -2.3	-0.2%	7%	3%	11%	-0.7	0.5%
6) CC(C)Cn1cnc2c1c(=O)n(CC(=O)NN)c(=O)n2Cc1ccccc1
    11	x	1%	11%	-34%[inhibitor]	1.7	-0.4%
7) CC(C)c1nc(C(=O)N2CCCC(CCC(=O)N(C)CCc3ccccn3)C2)cs1 (stereo not drawn)
    -0.5	-1.1%	-3%	9%	-39%[inhibitor]	-3.3	-0.4%
8) CC(c1ccccc1)N1CC(C(=O)N2CCCC(C(N)=O)C2)CC1=O (stereo not drawn)
    x	1.3%	6%	x	-1%	-4.1	-1.3%
9) Cn1c(=O)c(C(=O)c2ccccc2)nc2ccccc21
    1.1	-1.3%	-9%[15.4 µM]	2%	11%	0.6	-0.4%
10) CN1CCN(CC(=O)Nc2ccccc2[N+](=O)[O-])CC1
    -1.7	-1.9%	-1%	11%	-34%[inhibitor]	-3.1	0.8%
11) COc1ccc(CCNC(=O)CCn2c(SCC(=O)N3CCCC3)nc3ccccc3c2=O)cc1OC
    2.8	-2.3%	10%	-16%	29%	-4.8	0.0%
12) O=C1CCC(C(=O)NCCCn2ccnc2)N1 (stereo not drawn)
    4.5	0.2%	0%	-3%	-49%	-4.8	x
13) Cc1cc(=O)[nH]c(SCC(=O)N2c3ccccc3CC2C)n1 (stereo not drawn)
    0.2	0.3%	-17%	18%	-2%	1.5	0.3%
14) COC1OC(CO)C(N=C(C)C)C1O (stereo not drawn)
    x	-2.6%	4%	x	-3%	-0.1	-0.3%
15) Cc1ccc(C(=O)COC(=O)c2cc(Cl)ccc2O)cc1[N+](=O)[O-]
    x	40%	-21%	12%	-27%	-8.3	1.1%
16) CC(C)(CNC(=O)c1ccc(Br)o1)CNC(=O)c1ccc(Br)o1
    -2.7	1.2%	-4%	6%	-39%[inhibitor]	-1.0	1.3%
17) O=[N+]([O-])c1ccccc1NCc1ccccc1Cl
    3.4	x	u	-7%	4%[15.4 µM]	-4.2	14%
18) CCc1c(C)nc(SCC(=O)Nc2cccc(Br)c2)[nH]c1=O
    7.8	-1.7%	4%	14%	7%	-0.6	-1.8%[38.3 µM]
19) COc1cc(SC)ccc1C(=O)NCCOc1ccccc1Cl
    2.7	-0.3%	-16%	-27%	-49%[inhibitor]	1.9	5.5%
20) N#CC(C(=O)NCc1ccccc1)c1nc2ccccc2nc1N1CCCC1 (stereo not drawn)
    u	13%	10%	14%	u	-2.6	u
21) COc1ccc(S(=O)(=O)N2CCOC23CCN(S(=O)(=O)c2cc(F)ccc2F)CC3)cc1
    x	1.8%	-2%	x	-11%[15.4 µM]	-2.6	-1.4%
22) CCOc1ccccc1NC(=O)C(=O)CC(=O)c1ccc(OC)cc1
    -0.4	x	-6%	-21%	-31%[inhibitor]	-3.6	14%
23) O=[N+]([O-])c1ccc(-c2n(-c3ccccn3)c3ccccc3[n+]2-c2ccccn2)cc1
    -14	x	3%	13%	-19%[15.4 µM]	0.4	-2.0%
24) COc1ccc(CCN=C(N)C(C)c2ccccc2)cc1OC (stereo not drawn)
    -0.1	-2.2%	7%	25%	9%[15.4 µM]	-6.2	-1.4%
25) Cc1ccc(NC(=S)Nc2c(C)n(C)n(-c3ccccc3)c2=O)cc1Cl
    2.3	0.3%	6%	1%	-18%	-2.9	0.1%
26) COC(=O)c1ccc(C2C(C#N)=C(N)Oc3cc(O)ccc32)cc1 (stereo not drawn)
    u	x	u	-11%	-76%[inhibitor]	4.3	2.6%
27) CCc1nnc(NC(=O)CSc2nccn2-c2cc(C)cc(C)c2)s1
    3.3	-2.7%	5%	11%	-6%	-2.8	1.8%
28) COc1ccc(C(=O)N2CC3(C)C4CCC3(C)C2(C#N)C4)cc1OC (stereo not drawn)
    0.3	0.2%	8%	4%	13%[15.4 µM]	4.6	0.0%
29) CS(=O)(=O)N(Cc1ccc(Cl)cc1)c1ccc(C(=O)NCCSCc2ccco2)cc1
    -2.1	-1.1%	-13%	23%	u	1.2	x
30) Cc1ccc(S(=O)(=O)Nc2ccc3oc(=O)sc3c2)c(C)c1
    1.6	0.9%	3%	u	u	3.9	1.6%

Compounds listed so far with a nitro group on carbon, in the order listed:
Sequence of screens – Menin MLL FP FL	ClpP mod	gsp antag	Sfp PPTase inh	gsp ag	D2 ag	PINK1 modulator
10) CN1CCN(CC(=O)Nc2ccccc2[N+](=O)[O-])CC1
    -1.7	-1.9%	-1%	11%	-34%[inhibitor]	-3.1	0.8%
15) Cc1ccc(C(=O)COC(=O)c2cc(Cl)ccc2O)cc1[N+](=O)[O-]
    x	40%	-21%	12%	-27%	-8.3	1.1%
17) O=[N+]([O-])c1ccccc1NCc1ccccc1Cl
    3.4	x	u	-7%	4%[15.4 µM]	-4.2	14%
23) O=[N+]([O-])c1ccc(-c2n(-c3ccccn3)c3ccccc3[n+]2-c2ccccn2)cc1
    -14	x	3%	13%	-19%[15.4 µM]	0.4	-2.0%

Next part
Sequence of screens – Menin MLL FP FL	ClpP mod	gsp antag	Sfp PPTase inh	gsp ag	D2 ag	PINK1 modulator
31) CCCNC(=O)C1(C)CCCN(Cc2ccc(C(F)(F)F)cc2)C1 (stereo not drawn)
    x	0.7%	x	x	x	-1.8	6.0%
32) COc1ccc(C(=O)NC(=S)Nc2ccc3[nH]c(=O)[nH]c3c2)cc1
    1.5	x	0%	7%	10%	2.4	4.4%
33) Cc1ccc(NC(=O)CN2CCCN(S(=O)(=O)c3ccc(Br)s3)CC2)cc1
    -0.1	1.0%	u	-3%	-37%	-3.1	3.2%
34) O=C(O)C1CCCCC1C(=O)Nc1cccc(C(=O)N2CCCCC2)c1 (stereo not drawn)
    -0.5	0.1%	5%	-1%	-50%[inhibitor]	-0.8	-0.8%[38.3 µM]
35) Cc1ccn2c(=O)nc(SCC(=O)Nc3cc(C)on3)nc2c1
    x	x	13%	x	28%[15.4 µM]	-1.0	-2.2%
36) CCCCCCCCCCCCCCCC[n+]1cccc2ccccc21
    -1.7	-8.1%	11%	25µM*	-1%	-8.5	-2.9%
37) CCOC(=O)c1ccc(NC(=S)NCCC2=CCCCC2)cc1
    3.5	-14%	u	48%	-14%	-1.3	32µM*
38) O=[N+]([O-])c1cccnc1N1CCN(c2ccc(F)cc2)CC1
    3.5	1.1%	10%	8%	4%[15.4 µM]	-3.9	1.4%
39) Cc1c(NC(=O)c2ccc(S(=O)(=O)N3CC(C)OC(C)C3)cc2)c(=O)n(-c2ccccc2)n1C (stereo not drawn)
    -1.0	0.7%	4%	2%	9%	-4.0	-0.4%
40) COc1ccc(Cn2c(=O)[nH]c3cc(C(=O)NCCCN4CCCCC4)ccc3c2=O)cc1
    -0.9	-4.4%	6%	8%	7%	-2.2	-2.6%
41) O=C(Nc1ccccc1)c1cc2ccccc2o1
    0.1	1.0%	6%	-3%	-57%[inhibitor]	-2.5	-0.2%
42) COCCNC(=S)c1ccc(Br)cc1
    3.2	1.3%	9%	45µM*	-9%	-3.1	0.8%
43) Cc1cc(CSc2ccccc2)ccc1NC(=O)c1ccc(CN2CCOCC2)cc1
    0.9	17%	-4%	5%	-19%	1.6	5.6%
44) Cc1cc(C(=O)N/N=C/c2cc(Br)cc(Br)c2OC(=O)c2cccc(F)c2)n[nH]1
    8.6	x	-25%	22%	u	0.4	-1.8%
45) COc1ccc(CC(=O)NCc2nnc(SCCOc3ccccc3)n2C)cc1
    2.5	3.1%	-18%	9%	0%	-1.0	1.4%
46) COC(=O)N/N=C(\C)c1ccc(-n2ccnc2)cc1
    3.5	x	3%	12%	-6%[15.4 µM]	1.1	0.7%
47) S=c1[nH]nc(C2CCCCC2)n1/N=C/C=C/c1ccccc1
    2.8	0.3%	-2%	-2%	-57%[inhibitor]	-3.6	1.2%
48) Cc1ccc(S(=O)(=O)N(Cc2ccccc2)c2ccccn2)cc1[N+](=O)[O-]
    -2.9	x	-10%	11%	-1%	1.1	-0.3%
49) CCn1c(COc2ccc3c(c2)OCO3)nnc1SCC(=O)c1ccccc1
    4.0	-1.1%	-11%	u	-1%	0.7	-1.3%

Sfp PPTase inh, what is marked active above.
item | canonical_smiles | Menin MLL FP FL | gsp antag | Sfp PPTase inh | gsp ag | D2 ag | PINK1 modulator
36 | CCCCCCCCCCCCCCCC[n+]1cccc2ccccc21 | -1.7 | 11% | 25µM* | -1% | -8.5 | -2.9%
42 | COCCNC(=S)c1ccc(Br)cc1 | 3.2 | 9% | 45µM* | -9% | -3.1 | 0.8%
